HTT promoter inh: inhibits huntingtin promoter activity; HEK293 HTT promoter firefly luciferase reporter (activity 0% = vehicle and -100% = no light), 24 h; 0.93% of 48,000 active; Potency, µM (highest dose often 57.5 µM), for inactives: at the highest dose activity change, negative = inhibition, most hits filed as inhibitors; active = well fitted inhibition curve with a large enough effect; inconclusive = small, poorly fitted or top-dose-only effect; inactive = no such curve, though single readings can be large or run the other way; also: nearly all actives have a fitted effect of over 50% in size
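Firefly luciferase readout (Dual-Glo, 10 min RT) after 24 h, 37 °C compound exposure (final up to 57.5 uM) of HEK293 reporter cells cultured 24 h beforehand; PTC124 at 50 uM final as control inhibitor; activity scaled vehicle 0%, zero RLU -100%.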
PMP22 txn prim: modulates PMP22 transcription in S16 Schwann cells | AID 1508649 | S16 Pmp22-F2sN Schwann cells (luciferase reporters placed in the Pmp22 gene), FLuc/NLuc coincidence luminescence, 24 h | Potency, µM (titrated, usually from 57.5 µM), without a hit: top-dose activity change, negative = inhibition, hits mostly inhibitors | 2% of 43,000 active; active = clear falling dose curves in both reporters; inconclusive = both reporters move, but less clearly or upward; inactive = either reporter flat; the % is the NLuc reporter signal; also: % is scaled to controls: 0 for no effect and ±100 for the full control effect; some results filed as inactive show a strong effect at the top dose
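S16(c9) Schwann cells with FLuc/NLuc coincidence reporter in the Pmp22 3' UTR; compounds pin-transferred, 24 h at 37C. Dual-luciferase read: FLuc first, then NLuc after Stop&Glo, each 10 min at room temperature.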
Starred values were filed as active, the others as inactive; ? = inconclusive; . = not tested or not shown; [ ] = dose if it differs, or a comment. Potency is read from the fitted curve at half-maximal effect.

SMILES	HTT promoter inh	PMP22 txn prim
CCn1c(CNC(=O)c2ccc(OC)cc2)nnc1SCC(=O)Nc1cccc(C)c1	-13%	-2%
CCOC(=O)c1c(NC(=O)CSc2cn(CCNC(=O)c3ccccc3F)c3ccccc23)sc2c1CCCC2	?	?
CC(=O)Oc1cccc2c1C(=O)c1c(OC(C)=O)cc(C(=O)O)cc1C2=O	-2%	.
CCOC(=O)Cn1c(=O)n(-c2ccccc2OC)c2nc(-c3ccc(C(C)C)cc3)nc(C(N)=O)c21	-8%	-22%
COc1ccc(NC(=O)Cn2c(=O)oc3cc(S(=O)(=O)NC(C)C)ccc32)cc1OC	-19%	-1%
CCOc1ccc2nc(N3CCCC(C(=O)Nc4cc(Cl)c(OC)cc4OC)C3)sc2c1 (configuration not stated)	7%	?
CCC(=O)N1CCN(c2nc3c(C)cccc3s2)CC1	24%	-2%
COc1cc(NC(=O)c2cc3c(=O)oc4ccc(C)cc4c3s2)cc(OC)c1OC	-15%	-14%
Cc1ccc(Nc2c(-c3ccsc3)nc3cccc(C)n23)cc1	?	?
COC(=O)c1ccc(NC(=O)CN2C(=O)CC(c3ccccc3)Sc3ccccc32)cc1 (configuration not stated)	13%	-15%
COc1ccc(C(=O)COC(=O)CCCC(=O)Nc2cc(C(F)(F)F)ccc2Cl)cc1	0%	3%
Cc1ccc(Cn2c(=O)c3c(nc4n3CCN4c3cc(C)cc(C)c3)n(C)c2=O)cc1	71%[activator]	-11%
COc1cc(C(=O)NCc2ccc(OCCN(C)C)cc2)cc(OC)c1OC	7%	.
CCOc1ccc(-c2c(C)nn3c(C)c(C(=O)Nc4cccc(Cl)c4C)cnc23)cc1OCC	-8%	?
CC(C)(C)C(=O)Nc1nnc2n1CCS2	-2%	6%
COc1ccc(-c2csc3nc(-c4ccc(Cl)cc4)oc(=O)c23)cc1	-4%	-12%
CCCC(=O)Nc1nnc(SCc2cc(=O)n3ccccc3n2)s1	-1%	-68%
Cc1cc(O)c(C(C)C)cc1Cl	12%	.
CC1=C(c2ccc(C(C)C)cc2)S(=O)(=O)N=C1N1CCC(C(=O)Nc2ccc(C)cc2)CC1	-27%	?
COC(=O)CN1C(C(=O)c2ccccc2)=C(OC(=O)c2ccc(C)cc2)c2ccccc2S1(=O)=O	-12%	-11%
CCC1CN(C(=O)NCc2ccc(C)cc2)c2ccccc2O1 (configuration not stated)	-15%	2%
CC(C)C(NS(=O)(=O)c1ccc2c(c1)oc(=O)n2C)C(=O)NCCc1ccccc1 (configuration not stated)	-15%	2%
CN(C)[C@@H]1C(=O)C(C(N)=O)=C(O)[C@@]2(O)C(=O)C3=C(O)c4c(O)cccc4C[C@H]3C[C@@H]12	?	.
Nc1c(-c2nc(-c3ccccc3Cl)no2)nnn1-c1ccccc1F	89%[activator]	?
CN1C(=O)c2ccccc2Sc2ccc(NC(=O)COc3ccc(Cl)cc3)cc21	?	?

Brought forward from above: 6 compounds, then new ones.
SMILES	HTT promoter inh	PMP22 txn prim
COC(=O)CN1C(C(=O)c2ccccc2)=C(OC(=O)c2ccc(C)cc2)c2ccccc2S1(=O)=O	-12%	-11%
CCC1CN(C(=O)NCc2ccc(C)cc2)c2ccccc2O1 (configuration not stated)	-15%	2%
CC(C)C(NS(=O)(=O)c1ccc2c(c1)oc(=O)n2C)C(=O)NCCc1ccccc1 (configuration not stated)	-15%	2%
CN(C)[C@@H]1C(=O)C(C(N)=O)=C(O)[C@@]2(O)C(=O)C3=C(O)c4c(O)cccc4C[C@H]3C[C@@H]12	?	.
Nc1c(-c2nc(-c3ccccc3Cl)no2)nnn1-c1ccccc1F	89%[activator]	?
CN1C(=O)c2ccccc2Sc2ccc(NC(=O)COc3ccc(Cl)cc3)cc21	?	?
Cc1ccc(OCC(=O)OCc2cc(=O)n3nc(-c4cccs4)sc3n2)cc1C	4%	?
CCOc1ccc(C2=C(C(C)=O)Sc3nnc(C)n3N2C(C)=O)cc1	-23%	?
COc1cccc(CNS(=O)(=O)c2cc3[nH]c(=O)c(=O)[nH]c3cc2C)c1	1%	2%
CCc1nc2ccccc2n2c(-c3ccc(C)cc3)c3c(=O)n(C)c(=O)n(C)c3c12	-5%	-27%
Cc1cc(C)n(-c2nc3ccccc3nc2Nc2ccc(Cl)c(C(=O)OC(C)C)c2)n1	12%	-12%
COc1ccc(-c2csc(-c3c(N)c(C(=O)c4ccc(OC)c(OC)c4)n4ccccc34)n2)cc1	-10%	?
CC1CCN(C(=O)c2cc3c(=O)n(C)c4ccccc4c3s2)CC1	18%	3%
NS(=O)(=O)c1cc2c(cc1C(F)(F)F)NCNS2(=O)=O	5%	.
CCN(CC)CCN(C(=O)c1ccco1)c1nc2cc(C)cc(C)c2s1	-4%	-27%
COc1ccc(OCC(=O)N(Cc2sccc2C)C2CCS(=O)(=O)C2)cc1 (configuration not stated)	-6%	1%
Cc1ccc(NC(=O)CN2C(=O)CCc3cc(S(=O)(=O)N4CCOCC4)ccc32)cc1N(C)C	-20%	-29%
CCOC(=O)c1ccc(NC(=O)c2c(NCc3cccc(OC)c3OC)sc3c2CCC3)cc1	0%	-6%
Cc1ccc(C)c(N2CCN(C(=O)CN3C(=O)COc4ccc(S(=O)(=O)N5CCOCC5)cc43)CC2)c1	-12%	-29%
COc1ccc2[nH]c(C)c(CCNS(=O)(=O)c3cc(F)ccc3OC)c2c1	9%	-2%
CCOC(=O)N1CCC(NC(=O)c2ccc3c(c2)N(Cc2ccccc2C)C(=O)c2ccccc2S3=O)CC1 (configuration not stated)	-21%	?
CCOCCCNC(=O)C1CCN(C(=O)c2cc3sccc3n2C)CC1	0%	-18%
O=C(NCc1cccnc1)c1nn(-c2ccccc2F)nc1CO	?	-7%
COc1ccc(NC(=O)C2=C(C)Nc3c(C(=O)Nc4ccc(C)cc4)cnn3C2c2cc(OC)ccc2OC)cc1 (configuration not stated)	-6%	-50%
CCOC(=O)c1ccc2nc(C)cc(Nc3ccc(OC(C)C)cc3)c2c1	-29%	?
CCOC(=O)c1sc(NC(=O)C2c3ccccc3Oc3ccccc32)c(C#N)c1C	?	70%
CCc1cccc(NC(=O)C2CCC(CNS(=O)(=O)c3csc(C(N)=O)c3)CC2)c1 (configuration not stated)	-20%	-6%
C[C@@H]1CC[C@@]2(OC1)O[C@H]1C[C@H]3[C@@H]4CC[C@H]5C[C@@H](O)CC[C@]5(C)[C@H]4CC(=O)[C@]3(C)[C@H]1[C@@H]2C	1%[6.01 µM]	.
O=C(NCc1ccc(Cl)cc1Cl)c1cccc(N2CCCS2(=O)=O)c1	?	?
COc1ccc(NC(=O)CCN2CCN(CCO)CC2)cc1	-23%	12%
Cc1ccc(OCCSc2nc3ccccc3n2CC(=O)N2CCCCC2)c(C)c1	?	?

Reformatted as comma-separated lines: 5 of the compounds above
structure,HTT promoter inh,PMP22 txn prim
COc1cccc(CNS(=O)(=O)c2cc3[nH]c(=O)c(=O)[nH]c3cc2C)c1,1%,2%
CCc1nc2ccccc2n2c(-c3ccc(C)cc3)c3c(=O)n(C)c(=O)n(C)c3c12,-5%,-27%
Cc1cc(C)n(-c2nc3ccccc3nc2Nc2ccc(Cl)c(C(=O)OC(C)C)c2)n1,12%,-12%
COc1ccc(-c2csc(-c3c(N)c(C(=O)c4ccc(OC)c(OC)c4)n4ccccc34)n2)cc1,-10%,?
CC1CCN(C(=O)c2cc3c(=O)n(C)c4ccccc4c3s2)CC1,18%,3%

Next part.
SMILES	HTT promoter inh	PMP22 txn prim
O=C(c1ccc2c(Cl)c3c(nc2c1)CCCC3)N1CCN(c2cccc(C(F)(F)F)c2)CC1	-10%	-9%
Cc1sc2c(c1C)c(=O)n(-c1cccc(C(F)(F)F)c1)c(=O)n2Cc1ccccc1C#N	-2%	-2%
Cc1ccc2c(c1)c1c(c(=O)n(-c3cccc(Cl)c3)c(=O)n1CC(=O)c1ccc(Cl)cc1)n2C	-4%	5%
COc1cccc(CNC(=O)c2cnc(N3CCCC3)nc2C)c1	-10%	-1%
O=C(O)c1cccc(Nc2ncnc3ccc(Br)cc23)c1	-7%	-20%
N#Cc1c(-n2ncnc2-c2ccccc2C(F)(F)F)sc2c1CCCCC2	1.1µM*	-3%
O=C(Nc1cccc(Cl)c1)C(Cc1ccccc1)n1cccc1 (configuration not stated)	-20%	-21%
Cc1c(C(=O)NCc2ccccc2Cl)sc2nc3n(c(=O)c12)CCCCC3	9%	-55%
O=C1Nc2ccc(Cl)cc2[C@@](C#CC2CC2)(C(F)(F)F)O1	?	.
O=C(CSc1nc2c(c(=O)[nH]1)CN(Cc1ccc3c(c1)OCO3)CC2)Nc1ccc(F)cc1	?	?
COc1ccc(C2C=C(c3ccc(Br)cc3)Nc3nnnn32)c(OC)c1 (configuration not stated)	?	23%
Cc1ccc(NC(=O)CSc2nnc(N)s2)c(C)c1	-6%	-5%
Cc1ccc(CN(Cc2ccco2)C(=O)c2oc3ccc(C)cc3c2C)cc1	-16%	?
CCC(C(=O)Nc1ccccc1OC)n1c(C(=O)OC)cc2sc(Cl)cc21 (configuration not stated)	-30%	-23%
O=C(Nc1nc2n(n1)C(c1ccc(F)cc1)C=C(c1ccccc1)N2)c1ccco1 (configuration not stated)	-21%	-14%
COc1ccc(Nc2oc(/C=C/c3ccc(OC)c(OC)c3)nc2C#N)cc1	-4%	-38%
Cc1nc2c(C(=O)NCc3ccccc3Cl)c[nH]n2c(=O)c1Cc1cccc(Cl)c1	-21%	-23%
COc1ccc(-c2cc(C(F)(F)F)nc(S(C)(=O)=O)n2)cc1	?	20µM*
CC(=O)N(Cc1cccnc1)c1nc2c(C)c(C)ccc2s1	-27%	-20%
CCC(=O)N1CCc2cc(Br)cc(S(=O)(=O)N3CCCC(C(=O)NCc4ccc(C)cc4)C3)c21 (configuration not stated)	-9%	?
COc1ccc(CCn2c(=O)c3cccnc3n(CC(=O)Nc3ccc(C)cc3C)c2=O)cc1OC	2%	?
Cc1ccc(C(=O)N2c3ncnn3C3(CCCCC3)[C@@H]3CCCC[C@@H]32)cc1	?	-4%
Cc1ccc(-n2nnnc2C2CCN(S(=O)(=O)c3ccc(OC(F)(F)F)cc3)CC2)cc1	-8%	-25%
CC1=C(c2ccc(C)c(C)c2)S(=O)(=O)N=C1N1CCC(C(=O)NCc2ccccc2C)CC1	?	-24%
CC(NC(=O)c1ccco1)c1nc(-c2ccccc2)no1 (configuration not stated)	-10%	19%

Continuation.
SMILES	HTT promoter inh	PMP22 txn prim
CCOC(=O)c1cccc2c1N[C@@H](c1ccc(F)cc1)[C@H]1CC=C[C@@H]21	-16%	-23%
O=c1c2cc3c(cc2n(Cc2ccc(Cl)cc2)c(=O)n1Cc1nc(-c2ccccc2)no1)OCO3	-7%	-2%
COCCNc1sc(S(=O)(=O)c2ccc(C)cc2)nc1S(=O)(=O)c1ccc(C)cc1	-5%	-3%
Cc1ccc(-c2nc3c4c(-c5ccccc5)c(-c5ccccc5)oc4ncn3n2)cc1	-7%	10%
CCCN(CCC)CCCNC(=O)c1cc2c(-c3ccc(OC)c(OC)c3)nn(C)c2s1	-3%	?
Cc1c(Cl)cccc1NC(=O)c1ccc2c(c1)nnn2C1CCCC1	-31%	?
O=C1NC(=O)C(=Cc2ccc3nccc(-c4ccncc4)c3c2)S1	?	.
Cc1ccc(CN2C(=O)c3ccccc3Sc3ccc(C(=O)NC4CCCCC4)cc32)cc1	45%[activator]	7%
COc1ccc(CNC(=O)c2ccc(-c3nc(CSc4ccccc4)c(C)o3)cc2)cc1OC	-23%	-32%
CCN(C(=O)c1oc2ccc(S(=O)(=O)N3CCCCCC3)cc2c1C)c1ccccc1	?	?
CC(=O)Nc1ccc(NC(=O)c2c(C)nn(-c3ccccc3)c2-n2cccc2)cc1	-22%	0%
Cc1oc2ncnc(N3CCCCC3)c2c1C(=O)Nc1cccc(Cl)c1C	-27%	-21%
COc1ccccc1CNC(=O)CN1C(=O)CCc2cc(S(=O)(=O)N3CCOCC3)ccc21	-14%	-14%
Cc1cccc(OC(=O)c2nc(SCc3ccccc3F)ncc2Cl)c1	1%	-24%
Cc1ccc(C)c(NC(=O)CSc2nc(-c3ccccc3Cl)nc3c2Cc2c(CO)cnc(C)c2O3)c1	-18%	9%
CCOc1ccccc1NC(=O)Cn1c(=O)n(Cc2ccco2)c(=O)c2sc3ccccc3c21	-20%	?
Cn1c(=O)n(C)c2cc(S(=O)(=O)Nc3ccccc3C(=O)O)ccc21	4%	-9%
CCS(=O)(=O)c1ccc(C(=O)N2CCN(c3nc4c(OC)ccc(C)c4s3)CC2)cc1	?	34%
Clc1cccc(C(c2ccc3nc[nH]c3c2)n2ccnc2)c1 (configuration not stated)	-6%	.
CN(C(=O)C1CCCN(c2ncnc3c2nc2n3CCCCC2)C1)c1ccccc1F (configuration not stated)	?	?
CCC(Sc1nnc2c(n1)[nH]c1ccccc12)C(=O)Nc1nnc(C(C)C)s1 (configuration not stated)	-9%	-8%
O=C(CCCn1c2ccccc2c(=O)c2ccccc21)Nc1cccc(Cl)c1	?	?
O=C(COC(=O)c1cc(-c2cccs2)nc2ccccc12)c1ccc(F)cc1	-9%[11.5 µM]	7%
CCc1nnc2c(NCc3cccc(OC)c3)nc3ccccc3n12	-6%	-16%
O=C(Cn1c(=O)n2nc(-c3cccc(F)c3)nc2c2ccccc21)N1CCN(c2ccccc2F)CC1	5%	-10%
CC1CCN(S(=O)(=O)c2ccc3nc(NCc4ccccc4)ccc3c2)CC1	-2%	?

An excerpt, so the mix of outcomes need not match the whole.
